Assay outcomes: PubChem, National Center for Advancing Translational Sciences (NCATS)
MARV entry inh – inhibitors of Marburg virus binding or cell entry; AID 540276; Potency, µM (doses to about 37.8 µM), for the others: top-dose activity change, negative = inhibition, actives largely listed as inhibitors; hit rate 1.8% among 300,000; Marburg virus pseudotyped entry inhibition, cell reporter; control for the full effect not named in the record; about a third of the inactives were read at about 46 µM; active = well fitted inhibition curve with a large enough effect; inconclusive = small, poorly fitted or top-dose-only effect, or effect the other way; inactive = flat fitted curve, though single readings scatter; tested in HEK293 cells; about a fifth of its hits are not listed in these tables; note: % is set by controls: 0 for no effect and ±100 for the full control effect; luciferase read-out
SARS PLpro yeast – blocks SARS-CoV papain-like protease in a yeast assay; Potency, µM (highest dose often 32.9 µM), without a hit: at the highest dose activity, positive = growth rescue; hit rate 0.19% among 330,000; AID 485353; S. cerevisiae expressing SARS-CoV PLpro, growth rescue; control for the full effect not named in the record; note: 0% is about no effect; nearly all actives have a fitted effect of over 55% in size; growth read by luminescence after 48 h
RE007 growth inh – less growth of the S. pombe RE007 Vpr strain; S. pombe RE007 Vpr strain, BacTiter-Glo ATP luminescence, 24 h; control for the full effect not named in the record; Potency, µM (highest dose often 92.2 µM), for inactives: top-dose activity change, negative = less growth; hit rate 0.21% among 360,000; AID 651644; active = well fitted falling curve with a large enough effect; inconclusive = small, poorly fitted or top-dose-only effect; inactive = no such curve, though single readings can be large or run the other way;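 note: % is set by controls: 0 for no effect and ±100 for the full control effect; nearly all actives have a fitted effect of over 50% in size; the assay follows cell death caused by Vpr and the record does not say whether a fall means rescue or toxicity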
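Fission yeast RE007 carrying one integrated HIV-1 vpr copy, seeded at OD 0.01 in PMG+AL medium with 23 nL pinned compound. Grown 24 h at 30 degrees; viability read by BacTiter-Glo luminescence after 5 min.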
2A StopGo – FMDV 2A StopGo reporter, luciferase signal | hit rate 1.2% among 410,000 | human cells with a luciferase reporter of 2A StopGo recoding; control for the full effect not named in the record | Potency, µM (top dose mostly 57.9 µM), for the others: at the highest dose signal change, negative = less light | AID 1159524; active = well fitted falling curve with a large enough effect; inconclusive = small, poorly fitted or top-dose-only effect; inactive = no such curve, though single readings can be large or run the other way; tested in HEK293T cells; note: % is set by controls: 0 for no effect and ±100 for the full control effect; nearly all actives have a fitted effect of over 45% in size; luciferase light after 4 h
LASV entry inh – Lassa virus entry inhibition | Lassa virus pseudotype entry inhibition, cell reporter; control for the full effect not named in the record | Potency, µM (highest dose often 37.9 µM), for the others: top-dose activity change, negative = inhibition, hits mostly inhibitors | hit rate 1.2% among 300,000 | AID 540256; active means well fitted inhibition curve with a large enough effect; inconclusive means small, poorly fitted or top-dose-only effect, or effect the other way; inactive means flat fitted curve, though single readings scatter; tested in HEK293 cells; note: % is set by controls: 0 for no effect and ±100 for the full control effect; nearly all actives have a fitted effect of over 50% in size; luciferase read-out
Cruzain inh Det – cruzain (T. cruzi) inhibition with detergent; P25779; purified cruzain, Z-FR-AMC fluorescence, 0.01% Triton; Potency, µM, inactives show max response, negative = inhibition, hits mostly inhibitors; hit rate 0.43% among 200,000; AID 1478; active = well fitted curve in the direction sought with a large enough effect; inconclusive = small, poorly fitted or top-dose-only effect, or another doubt; inactive = no such curve, though single readings can be large; an effect the other way counts as inactive or inconclusive;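 note: plate controls were neutral wells for no effect and buffer without enzyme for full effect; nearly all actives have a fitted effect of over 40% in size; top concentration of the series not given in the record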
Target sequence (P25779 123-467 limits assumed): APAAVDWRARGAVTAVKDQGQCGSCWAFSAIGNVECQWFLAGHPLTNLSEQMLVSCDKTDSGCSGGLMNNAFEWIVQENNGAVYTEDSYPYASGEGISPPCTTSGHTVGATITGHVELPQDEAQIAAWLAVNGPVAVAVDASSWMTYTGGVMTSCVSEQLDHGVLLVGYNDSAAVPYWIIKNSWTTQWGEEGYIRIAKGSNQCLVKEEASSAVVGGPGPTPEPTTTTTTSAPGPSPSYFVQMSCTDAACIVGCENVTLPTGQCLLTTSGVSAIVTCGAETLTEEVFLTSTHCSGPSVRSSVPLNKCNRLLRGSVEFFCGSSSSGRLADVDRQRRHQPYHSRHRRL
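Detergent-containing run (0.01% Triton X-100) in acetate buffer pH 5.5 with 5 mM DTT: enzyme at 1.5 nM final, 15 min compound preincubation at room temperature, then 2 uM Z-FR-AMC substrate. Activity taken as 60 s fluorescence increase at 360/450 nm.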
NS1 function inh – influenza NS1 inhibition; S. cerevisiae slowed by influenza A NS1, growth recovery by OD600; Potency, µM (titrated, usually from 46.1 µM), without a hit: at the top dose activity, positive = more growth; hit rate 0.4% among 270,000; AID 2326; note: actives are rising curves; nearly all actives have a fitted effect of over 50% in size
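Read-out: OD600 growth recovery of NS1-expressing budding yeast. Cells grown overnight at 30C in -URA glucose medium, washed, resuspended and diluted 1:100 in 2% galactose assay medium, pH 6.0. Same strain lacking NS1 served as positive control.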
Cruzain inh noDet – cruzain (T. cruzi) inhibition without detergent | purified cruzain, Z-FR-AMC fluorescence, no detergent | Potency, µM, without a hit: max response, negative = inhibition, most hits filed as inhibitors | hit rate 2.3% among 200,000; active = well fitted curve in the direction sought with a large enough effect; inconclusive = small, poorly fitted or top-dose-only effect, or another doubt; inactive = no such curve, though single readings can be large; an effect the other way counts as inactive or inconclusive;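 note: plate controls were enzyme without inhibitor for no effect and buffer without enzyme for full effect; nearly all actives have a fitted effect of over 40% in size; top concentration of the series not given in the record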
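Purified cruzain at 1.5 nM, pre-incubated 15 min with compound at room temperature in 100 mM sodium acetate pH 5.5, 5 mM DTT, 0.00005% Triton X-100. Reaction started with 2 uM Z-FR-AMC; AMC fluorescence increase over 60 s gives rate.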
Starred values were filed as active, the others as inactive; & = joins results of further samples; [ ] = another dose, or the depositor's remark. Unless noted, calls come from the whole dose curve; as a rule, active means well fitted rising curve with a large enough effect; inconclusive means small, poorly fitted or top-dose-only effect; inactive means no such curve, though single readings can be large or run the other way. Potency is the fitted concentration of half-maximal effect.

Cc1cc(-c2nc(C)c(C(=O)NNC(=O)NC(C)C)s2)no1 was read as MARV entry inh 6%, SARS PLpro yeast 1%, RE007 growth inh 13%, 2A StopGo 18%, LASV entry inh inconclusive and NS1 function inh 2%.
Screening O=C(CN1C(=O)S/C(=C\c2ccccc2)C1=O)Nc1cc([N+](=O)[O-])ccc1O returned SARS PLpro yeast 1%, RE007 growth inh 5%, 2A StopGo 27% and NS1 function inh 9%.
COc1cc(C(=O)N/N=C(\C)c2ccc3c(c2)OCO3)cc(OC)c1OC was read as MARV entry inh inconclusive, SARS PLpro yeast 0%, RE007 growth inh -7%, 2A StopGo 9%, LASV entry inh inconclusive and NS1 function inh 5%.
For CCC[n+]1c(C)sc2c(OC)ccc(OC)c21 the results were MARV entry inh 8%, SARS PLpro yeast 2%, RE007 growth inh -16%, 2A StopGo -2% and LASV entry inh 3%.
`O=C(NCCNC1CCCCC1)c1ccco1` gave MARV entry inh 18%[46.1 µM], SARS PLpro yeast 0%, RE007 growth inh -14%, 2A StopGo -2%, LASV entry inh -2% and NS1 function inh -4%.
CCOc1ccc(N2C(=O)C3Sc4[nH]c(=O)sc4C(/C=C/c4ccccc4)C3C2=O)cc1 (stereo not given) was read as MARV entry inh 9%, SARS PLpro yeast -12%, 2A StopGo -28%, LASV entry inh -1%, Cruzain inh Det -9.4%, NS1 function inh 17% and Cruzain inh noDet 5%.
Screening Cc1ccc(C(=O)NC(=S)Nc2cccc(-c3nc4ccccc4s3)c2)cc1 returned MARV entry inh 18%, SARS PLpro yeast 14%, RE007 growth inh -2%, 2A StopGo 30%, LASV entry inh inconclusive, Cruzain inh Det 0.3%, NS1 function inh 3% and Cruzain inh noDet inconclusive.
`CC(=O)Nc1ccc(OCC(O)CN2C(C)(C)CC(O)CC2(C)C)cc1` (stereo not given) gave MARV entry inh -35%, SARS PLpro yeast -1%, RE007 growth inh -15%, 2A StopGo -25%, LASV entry inh 6%, Cruzain inh Det 1.1%, NS1 function inh 0% and Cruzain inh noDet -7%.
Screening COc1ccc(CNC(=O)CCNS(=O)(=O)c2ccc(Br)s2)cc1 returned MARV entry inh 3%[46.1 µM], SARS PLpro yeast 2%, RE007 growth inh -10%, 2A StopGo -7%, LASV entry inh 1% and NS1 function inh 14%.
For CCCCN(Cc1ccccc1)C(=O)C1CCN(S(=O)(=O)c2c(C)noc2C)CC1 the results were MARV entry inh -21%, SARS PLpro yeast 3%, RE007 growth inh 5%, 2A StopGo 16%, LASV entry inh 1%, Cruzain inh Det -1.4%, NS1 function inh 14% and Cruzain inh noDet -4%.
Screening Cc1nn(C)cc1S(=O)(=O)N1CCN(Cc2ccc(F)cc2Cl)CC1 returned MARV entry inh inconclusive, SARS PLpro yeast 0%, RE007 growth inh 4%, 2A StopGo 2%, LASV entry inh -1% and NS1 function inh 1%.
CCOC(=O)C1=C(N)n2c(s/c(=C\c3cccnc3)c2=O)=C(C(=O)OCC)C1c1cccnc1 (stereo not given) was read as SARS PLpro yeast 11%, Cruzain inh Det -1.5%, NS1 function inh 2% and Cruzain inh noDet inconclusive.
Cc1ccccc1NC(=O)CSc1nc(N)c(C#N)cc1C#N was read as MARV entry inh inconclusive, SARS PLpro yeast 4%, RE007 growth inh 10%, 2A StopGo 9%, LASV entry inh -2%, Cruzain inh Det 4.6%, NS1 function inh 4% and Cruzain inh noDet -11%.
`Cc1ccc(-n2nnc(-c3cnc4ccccc4c3)n2)cc1` gave SARS PLpro yeast -2%, RE007 growth inh 8%, 2A StopGo -11% and NS1 function inh -4%.
For CC(C)CCNC(=O)C(c1ccco1)N(Cc1ccc(F)cc1)C(=O)c1snc(C(N)=O)c1N (stereo not given) the results were MARV entry inh -22%, SARS PLpro yeast -2%, RE007 growth inh -5%, 2A StopGo -1%, LASV entry inh 1%, Cruzain inh Det -11%, NS1 function inh -48% and Cruzain inh noDet 7%.
`CCCCOc1ccc(CSCCN)cc1Cl` gave SARS PLpro yeast -1%, RE007 growth inh 4%, 2A StopGo 43%[activator] and NS1 function inh -5%.
COCCN1C=C2C(=O)C(C)(OC(=O)c3cccs3)C(=O)C=C2C=C1CCCC(=O)OC (stereo not given) was read as MARV entry inh inconclusive, SARS PLpro yeast 3%, RE007 growth inh -8%, 2A StopGo 1% and NS1 function inh 3%.
`O=C(CCc1nnc2ccc(NCc3ccco3)nn12)N1CCN(c2ccccc2)CC1` gave MARV entry inh 4%[46.1 µM], SARS PLpro yeast 0%, RE007 growth inh 1%, 2A StopGo -19%, LASV entry inh -8%[46.1 µM] and NS1 function inh 7%.
For CCN(CC)S(=O)(=O)N1CCN(S(=O)(=O)N2CCOCC2)CC1 the results were MARV entry inh 0%[46.1 µM], SARS PLpro yeast 0%, RE007 growth inh 6%, 2A StopGo -12%, LASV entry inh 11%[46.1 µM] and NS1 function inh 8%.
CC(C)(C)NC(=O)COC(=O)c1nsc(Cl)c1Cl was read as MARV entry inh -3%[46.1 µM], SARS PLpro yeast -6%, RE007 growth inh -5%, 2A StopGo -2%, LASV entry inh 2%, Cruzain inh Det -2.1%, NS1 function inh 20% and Cruzain inh noDet -12%.
Screening COc1ccc(CN(Cc2nc3ccccc3c(=O)[nH]2)C(=O)C(C)(C)C)cc1 returned MARV entry inh -21%[46.1 µM], SARS PLpro yeast 10%, RE007 growth inh -4%, 2A StopGo -3%, LASV entry inh -7%, Cruzain inh Det -2.8%, NS1 function inh -11% and Cruzain inh noDet 0%.
COc1ccc(NC(=O)c2ccc(-c3csc(C)n3)cc2)cc1 was read as MARV entry inh inconclusive, SARS PLpro yeast -4%, RE007 growth inh 21%, 2A StopGo -7%, LASV entry inh inconclusive and NS1 function inh -5%.
For OC(CNCC1COc2ccccc2O1)COc1ccc(Cl)cc1 (stereo not given) the results were SARS PLpro yeast -9%, RE007 growth inh -7%, 2A StopGo -20% and NS1 function inh -16%.
Screening O=C(CCN1C(=O)C2CC=CCC2C1=O)Nc1ccc(S(=O)(=O)N2CCCCC2)cc1 (stereo not given) returned MARV entry inh -8%, SARS PLpro yeast 4%, RE007 growth inh -8%, 2A StopGo 0% and LASV entry inh -3%[46.1 µM].
Screening COc1ccc(C(CNC(=O)c2ccc(-c3cccc(C(F)(F)F)c3)o2)N2CCOCC2)cc1 (stereo not given) returned MARV entry inh inconclusive, SARS PLpro yeast 2%, RE007 growth inh -5%, 2A StopGo inconclusive and LASV entry inh -26%[46.1 µM].
Cc1ccc(C)c2nc(SCC(=O)NCc3cccs3)c(C#N)cc12 was read as MARV entry inh inconclusive, SARS PLpro yeast 4%, RE007 growth inh -20%, LASV entry inh 17%, Cruzain inh Det 5.0%, NS1 function inh 11% and Cruzain inh noDet -19%.
C/C(=N\Nc1nc2ccccc2[nH]1)c1ccc([N+](=O)[O-])cc1 was read as MARV entry inh -1%[46.1 µM], SARS PLpro yeast 5%, RE007 growth inh 2%, 2A StopGo -19%, LASV entry inh inconclusive and NS1 function inh inconclusive.
Screening [N-]=[N+]=CC(=O)OC[C@H](N)C(=O)O returned MARV entry inh -17%&-17%, SARS PLpro yeast 7%, RE007 growth inh 9%, 2A StopGo -22%&-12%, LASV entry inh 20%, Cruzain inh Det 3.4%, NS1 function inh -3% and Cruzain inh noDet -2%.
`CCCCn1c(=N)n(CCOc2ccccc2OC)c2ccccc21` gave MARV entry inh inconclusive, 2A StopGo inconclusive, LASV entry inh inconclusive, Cruzain inh Det -2.3% and Cruzain inh noDet 2%.
`O=C(NC1(C(=O)O)CCCC1)c1ccccc1` gave MARV entry inh -4%[46.1 µM], RE007 growth inh -3%, 2A StopGo -6%, LASV entry inh 11%[46.1 µM], Cruzain inh Det 3.5%, NS1 function inh 0% and Cruzain inh noDet 8%.
`O=C(COC(=O)c1ccc2c(c1)OCO2)Nc1ccccc1OC(F)F` gave MARV entry inh 27%, SARS PLpro yeast -1%, RE007 growth inh -6%, 2A StopGo -8% and LASV entry inh -1%.
Screening CC1(C)CC(NC(=O)C2CCCCC2C(=O)O)CC(C)(C)N1 (stereo not given) returned MARV entry inh -1%, SARS PLpro yeast -1%, RE007 growth inh -9%, 2A StopGo -11%, LASV entry inh -11%, Cruzain inh Det -0.1%, NS1 function inh 0% and Cruzain inh noDet 8%.
Screening O=C(CCCN1C(=O)/C(=C/c2ccccc2Cl)SC1=S)N1CCCC1 returned SARS PLpro yeast -25%, RE007 growth inh 0%, 2A StopGo inconclusive and NS1 function inh -46%.
Screening CCC(Cc1ccccc1)NC(=O)c1cccc(Nc2nc3ccccc3nc2-n2nc(C)cc2C)c1 (stereo not given) returned MARV entry inh 12%[46.1 µM], 2A StopGo -17%, LASV entry inh 15%[46.1 µM], Cruzain inh Det -0.8% and Cruzain inh noDet -7%.
CCOC(=O)c1c(-c2ccc(OC)c(OC)c2)csc1NC(=O)C1CCCO1 (stereo not given) was read as MARV entry inh inconclusive, SARS PLpro yeast 1%, RE007 growth inh 15%, 2A StopGo inconclusive and LASV entry inh inconclusive.
Screening CCOC(=O)c1c(C)oc2ccc(NS(=O)(=O)c3ccc(C(=O)O)cc3)cc12 returned MARV entry inh -1%[46.1 µM], SARS PLpro yeast 0%, RE007 growth inh -3%, 2A StopGo -5%, LASV entry inh 20%[46.1 µM] and NS1 function inh 1%.
